CtBP-E1A inh: blocks the CtBP interaction with E1A; AlphaScreen GST-E1A/His-CtBP binding, 1536-well; hits give low values; control for the full effect not named in the record; activity change, % (no concentration beside the values); 0.49% of 340,000 active; in the data active means activity change below about -65%; inconclusive means about -30% to -65%; inactive means above about -30%; further: on the % scale 0 is the no-effect control and ±100 the full control effect; compound concentration not given in the record
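AlphaScreen with 125 nM GST-E1A and 125 nM His-CtBP (5X stocks) in Tris pH 8.0, 300 mM NaCl, BSA, Tween 20, TCEP. Compounds preincubated 2 h at 37 deg C, then glutathione donor/nickel acceptor beads added for 1 h at 37 deg C in dark.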
D2 ag: agonists of human D2 dopamine receptor (beta-arrestin). P14416. 0.084% of 360,000 active. DiscoveRx PathHunter D2 beta-arrestin, luminescence, 90 min; 100% = 57 uM dopamine signal. AID 624465. activation, % (test concentration not listed); in the data active = activation above about 40%; inconclusive = about 15% to 40%; inactive = below about 15%; further: compound concentration not given in the record; the text of the record calls up to 30% inactive
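DiscoveRx PathHunter D2 beta-arrestin cells (2,100/well) attached overnight, then compound-stimulated 90 min at 37 C in HBSS/10 mM HEPES/0.1% Tween-20 buffer; beta-galactosidase complementation read by luminescence after 1 h at ambient temperature. Dopamine 57 uM final (EC100) as control.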
PINK1 expr mod: PINK1 expression modulation | Potency, µM (series often up to 76.6 µM), for the others: at the top dose activation (PINK1 increase), usual class: activators | 0.2% of 410,000 active | PINK1 immunofluorescence, high-content cytometry, 24 h; active = well fitted activation curve with a large enough effect; inconclusive = small, poorly fitted or top-dose-only effect; inactive = flat fitted curve, though single readings scatter; cell line not stated here;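 further: potency means the concentration at half of the fitted maximal effect; % of control where 0% means no effect; nearly all actives have a fitted effect of over 65% in size; a mitochondrial uncoupler was the plate control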
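Fluorescence from anti-PINK1 antibody, together with nuclear and cell stains, was scanned on a laser-scanning cytometer. Before staining, stable-line cells were incubated 24 hours with compounds at 5 concentrations; primary antibody 12 h at 10 degrees C.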
TRPML1 agonist: agonists of human TRPML1 channel | 0.12% of 410,000 active | activation, % (concentration not given with the values) | AID 624414 | Q9GZU1 | TRPML1-expressing cells, Ca2+ dye fluorescence, FDSS; host cell line not named in the record; reference of the full effect not given here; in the data active = activation above about 50%; inconclusive = about 30% to 50%; inactive = below about 30%; further: 0% is about no effect; the text of the record puts the active cut at 80%
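Tetracycline-induced TRPML1-DL cells are seeded and incubated overnight before loading with a no-wash Ca2+ dye and quencher. Agonist activity is taken from the 110 s fluorescence read following compound pin-transfer on an FDSS, before EC80 54-4 challenge.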
TRPML1 inh: blocks the human TRPML1 channel | 0.02% of 390,000 active | activity change, negative = inhibition, % (no concentration beside the values) | Q9GZU1 | TRPML1-inducible cells, Ca2+ dye fluorescence, FDSS; hits give low values; inhibition of EC80 agonist-evoked calcium signal; in the data active means activity change below about -50%; inconclusive means about -30% to -50%; inactive means above about -30%;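 further: stimulus is agonist 54-4 at its EC80 concentration; on the % scale 0 is the no-effect control and ±100 the full control effect; compound concentration not given in the record; the text of the record puts the active cut at -80%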
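TRPML1-DL cells, Tet-induced overnight (~16 h, 37 °C) at 1,500 cells/well, were loaded with Ca8 no-wash dye plus quencher for 45-90 min at room temperature. Compounds were pinned during FDSS kinetic reading; agonist 54-4 at EC80 (4 uM final) then added.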
Six1-Eya2 inh: Six1/Eya2 interaction inhibition. Q15475+O00167. AlphaScreen GST-Six1/His-Eya2 binding, biochemical; hits give low values; control for the full effect not named in the record. activity change, % (test concentration not listed). 0.56% of 360,000 active. AID 651725; in the data active = activity change below about -65%; inconclusive = about -30% to -65%; inactive = above about -30%; further: on the % scale 0 is the no-effect control and ±100 the full control effect; compound concentration not given in the record
Target sequence (O00167 whole entry, looked up): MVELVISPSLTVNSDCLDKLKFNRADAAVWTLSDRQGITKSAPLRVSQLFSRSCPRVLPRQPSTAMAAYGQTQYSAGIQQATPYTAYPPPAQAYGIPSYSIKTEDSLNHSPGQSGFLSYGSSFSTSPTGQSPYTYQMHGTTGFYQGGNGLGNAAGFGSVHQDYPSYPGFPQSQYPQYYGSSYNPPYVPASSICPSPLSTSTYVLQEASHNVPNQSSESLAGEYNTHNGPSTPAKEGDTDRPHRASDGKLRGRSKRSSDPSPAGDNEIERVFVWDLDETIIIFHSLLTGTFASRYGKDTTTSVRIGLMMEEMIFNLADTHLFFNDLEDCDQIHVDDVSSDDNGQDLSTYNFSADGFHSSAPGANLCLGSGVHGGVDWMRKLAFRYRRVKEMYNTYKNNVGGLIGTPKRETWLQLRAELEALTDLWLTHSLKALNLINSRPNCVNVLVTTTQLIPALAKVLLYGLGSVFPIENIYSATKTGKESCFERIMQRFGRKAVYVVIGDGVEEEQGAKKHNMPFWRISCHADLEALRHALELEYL
Target sequence (Q15475 whole entry, looked up): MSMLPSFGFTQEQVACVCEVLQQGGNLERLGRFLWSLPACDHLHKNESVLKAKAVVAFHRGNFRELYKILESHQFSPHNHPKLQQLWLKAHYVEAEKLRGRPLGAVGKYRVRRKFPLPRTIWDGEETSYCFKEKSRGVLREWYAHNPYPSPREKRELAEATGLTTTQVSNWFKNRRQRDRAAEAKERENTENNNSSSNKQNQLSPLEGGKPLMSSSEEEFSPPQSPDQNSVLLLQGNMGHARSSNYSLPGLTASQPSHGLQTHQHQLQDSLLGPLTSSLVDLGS
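AlphaScreen luminescence read after one hour at 37 °C in darkness. Pin-transferred compounds met GST-Six1 and His-Eya2 protein (5X stock 250 nM/500 nM) plus glutathione donor and Ni-chelate acceptor beads (5X, 50 ug/mL).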
Numbers without * were called inactive; ? = inconclusive; nt = no result given; & = joins results of further samples; [ ] = another dose, or the depositor's remark. The order is random; overall some 1% were active at least once.

A first look, 4 compounds:
The line under a structure holds: CtBP-E1A inh, D2 ag, PINK1 expr mod, TRPML1 agonist, TRPML1 inh, Six1-Eya2 inh
1) CCCCn1c(C(C)NC(=O)CCC)nc2ccccc21 (stereo not drawn)
→ 4, -0.5, -1.1%, 0.1, -4, -2
2) CCOCCCNS(=O)(=O)c1ccccc1
→ 7, 1.3, -1.8%[38.3 µM], -0.3, 3, 1
3) Cc1nn(CC(N)=O)c(=O)c2ccccc12
→ 1, -1.3, -1.2%, 0.3, -16, -1
4) COc1ccccc1C(=O)Nc1c(C(=O)N(CCN(C)C)Cc2ccco2)oc2ccccc12
→ nt, -8.4, -1.1%&-6.1%, 0.2&0.4, 12&-6, -26

This part in full, from the start:
The line under a structure holds: CtBP-E1A inh, D2 ag, PINK1 expr mod, TRPML1 agonist, TRPML1 inh, Six1-Eya2 inh
1) CCCCn1c(C(C)NC(=O)CCC)nc2ccccc21 (stereo not drawn)
→ 4, -0.5, -1.1%, 0.1, -4, -2
2) CCOCCCNS(=O)(=O)c1ccccc1
→ 7, 1.3, -1.8%[38.3 µM], -0.3, 3, 1
3) Cc1nn(CC(N)=O)c(=O)c2ccccc12
→ 1, -1.3, -1.2%, 0.3, -16, -1
4) COc1ccccc1C(=O)Nc1c(C(=O)N(CCN(C)C)Cc2ccco2)oc2ccccc12
→ nt, -8.4, -1.1%&-6.1%, 0.2&0.4, 12&-6, -26
5) CCOc1cc(/C=N/Nc2nncc(-c3ccccc3)n2)ccc1O
→ -25, 1.1, 4.8%, 1.7, -13, -20
6) CC(C)Cn1cc(Cl)c(=O)n(CC(C)C)c1=O
→ -8, 0.6, -0.8%, 0.0, -8, 0
7) Cc1cc(C(F)F)nn1CC(=O)NC1C(=O)N2C(C(=O)O)=C(CSc3nnnn3C)CSC12 (stereo not drawn)
→ 10, 1.7, 0.5%, -0.5, 2, -2
8) CC1CCCN(CCC(=O)c2ccccc2)C1 (stereo not drawn)
→ 0, -2.5, 0.4%, 1.3, 12, 4
9) O=C(CSc1nccc(=O)[nH]1)N1CCc2ccccc2C1
→ -5, 2.2, -0.1%[38.3 µM], 0.4, -9, 0
10) COc1cc(/C=C2/C(=N)N3N=C(C)SC3=NC2=O)ccc1OS(=O)(=O)c1ccc(C)cc1
→ -2, -0.9, 10.0%, -0.3, 13, -9
11) CS(=O)(=O)c1ccc(N)cc1
→ 2, -4.5, 1.8%, 0.0, 14, 6
12) CN(C)c1ccc(CNS(=O)(=O)c2ccc3c(c2)C(C)(C)C(=O)N3C)cc1
→ 0, -7.3, 1.3%, 0.2, -6, -13
13) COc1ccc(NC(=O)C2CCCN(c3nn4c(=O)cc(C)nc4s3)C2)cc1 (stereo not drawn)
→ -6, -4.6, 0.5%, 0.0, -12, 13
14) COc1cc(C(=O)NCCc2ncccc2C)ccc1OC1CCN(C(C)=O)CC1
→ 3, 3.4, -0.4%, -0.2, 11, 0
15) O=C(Nc1ccc2c(c1)OCO2)c1n[nH]c(=O)c2ccccc12
→ -27, -2.7, -0.2%, -0.4, -21, -12
16) CN(C(=O)Cn1nc(C(=O)O)c2ccccc2c1=O)C1(C#N)CCCCC1
→ -2, -3.6, 0.8%, -0.3, 12, -2
17) O=C(CN1CCN(Cc2ccccc2)CC1)NCCNc1ccc([N+](=O)[O-])cn1
→ -1, -3.8, 1.5%, -0.9, 21, 2
18) Cc1cccc(/C=C(\C#N)c2nc3ccccc3c(=O)[nH]2)c1
→ nt, nt, -0.3%, 0.7, 11, nt
19) COc1ccc(Br)cc1/C=N/NC(=O)c1nc(-c2ccccc2)n2c1CCCCC2
→ -1, -3.9, -1.0%, 2.0, 33, -6
20) O=C1NC[C@H](CCCCN2CCN(Cc3ccccc3)C(=O)C2=O)N(CCC2CCCCC2)C1=O
→ 11, nt, -0.2%, -0.3, nt, 10

Additional compounds:
The line under a structure holds: CtBP-E1A inh, D2 ag, PINK1 expr mod, TRPML1 agonist, TRPML1 inh, Six1-Eya2 inh
21) COc1cc(/C=N/NC(=O)Cc2c[nH]c3ccccc23)cc(OC)c1OC
→ -3, -2.2, -2.1%, 4.0, 12, -8
22) O=C1NC[C@@H](CCCCN2C[C@H](Cc3ccc(O)cc3)N(CCc3ccccc3)C(=O)C2=O)N(Cc2ccccc2)C1=O
→ 1, nt, 1.0%, -0.5, nt, -5
23) CC(C)NC(=O)N(C)C[C@H]1Oc2ccc(NC(=O)Nc3ccc(C(F)(F)F)cc3)cc2C(=O)N([C@H](C)CO)C[C@@H]1C
→ 3, 0.6, 0.3%, 0.4, 11, 1
24) CCOc1ccc(-c2noc(CCC(N)=O)n2)cc1OCC
→ 10, -1.0, -2.1%, -0.9, 2, 0
25) COc1ccccc1CCc1nnc(CCC(=O)N(C)Cc2ccncc2C)o1
→ nt, 5.0, -0.5%, 1.4, -10, -7
26) C/C(=N/NC(=O)CNC(=O)c1cccnc1)c1ccc([N+](=O)[O-])cc1
→ 1, 1.3, 2.3%, 0.1, 0, 1
27) Cc1ccc(CSCCNS(=O)(=O)c2ccc(C)cc2)cc1
→ 13, -0.7, 5.6%, 0.4, -9, 1
28) CCOc1ccc(C(=O)NCC(C)C)cc1
→ -8, -0.6, 0.2%, 0.0, 16, 9
29) O=C(COc1ccccc1[N+](=O)[O-])N/N=C/c1ccc(OC(=O)c2ccco2)cc1
→ -3, -2.0, 9.4%, -0.2, -14, ?
30) COc1ccccc1CNC(=O)COc1cccnc1[N+](=O)[O-]
→ -1, 2.3, -2.1%, 3.8, 50, -5
31) COc1cc(OC)c(C(=O)Nc2ccc(S(=O)(=O)N3CCCCC3)cc2)cc1OC
→ -2, 2.8, 1.9%, 1.2, -4, -8
32) CCCCN1C(=O)C(O)(c2c(C)[nH]c3ccccc23)c2ccccc21 (stereo not drawn)
→ nt, nt, -3.2%, 2.7, -19, nt
33) CN(C(=O)CSc1nc2ccccc2o1)C1CCCCC1
→ 4, -3.1, 0.2%, 0.2, -5, 0
34) Cc1ccc(NC(=O)N(C2=NCC(C)S2)c2ccccc2)cc1 (stereo not drawn)
→ 4, 1.8, 1.3%, -0.2, -3, 11
35) O=C(c1ccccc1)N1CCN(c2ccc([N+](=O)[O-])c(NCc3ccco3)c2)CC1
→ -28, -0.2, -0.5%, 1.9, 15, -23
36) O=C(Nc1cc(C(F)(F)F)ccc1F)C1CCCC1
→ 11, -0.6, 1.6%[38.3 µM], 0.0, 0, 9
37) Cc1cc(Br)ccc1OCCn1ccnc1
→ 2, 70*, -1.3%, -1.6, 8, -10
38) CCOC(=O)c1sc2cccc(Cl)c2c1N
→ 41, -1.6, -1.6%, 0.4, 4, 38
39) CC(C)n1nnnc1SCC(=O)NC1CCCC1
→ 1, -3.8, 0.5%, 0.7, -13, 10
40) COc1ccc2c(OC)cc(-c3ccccc3)nc2c1
→ 1, -1.3, 0.2%, -1.5, 16, -2

Other compounds
The line under a structure holds: CtBP-E1A inh, D2 ag, PINK1 expr mod, TRPML1 agonist, TRPML1 inh, Six1-Eya2 inh
41) Cc1nc2nc(SCc3ccccc3)nn2c(C)c1C
→ nt, -5.7, 0.9%, -0.5, -1, -7
42) CCN(CC)C(=O)[C@H]1CC(CC(=O)NCCc2ccccn2)C(=O)N2CCc3c([nH]c4ccc(OC)cc34)[C@]12C (stereo partly drawn)
→ -7, -2.5, -0.3%, -0.2, 46, 0
43) CN(C)c1cccc(NC(=O)NC2(C)CCS(=O)(=O)C2)c1 (stereo not drawn)
→ 4, 3.1, -1.7%, 0.6, -9, -1
44) COc1cc2c(cc1OC)CN(CC(=O)Nc1cccc(C(F)(F)F)c1)CC2
→ 0, 1.2, 3.9%, 0.7, -5, 2
45) COc1ccc(NC(=O)c2nnn(-c3ccc(C(C)C)cc3)c2C)c(OC)c1
→ nt, nt, -0.3%, -0.1, -13, nt
46) COc1cccc(CNC(=O)c2ccc(Cn3c(SCc4ccccc4)nc4cccnc43)cc2)c1
→ nt, nt, 2.5%, 0.4, 10, nt
47) CCOc1ccc2nc(N3CCCC(C(=O)NCCCN4CC(C)CC(C)C4)C3)sc2c1 (stereo not drawn)
→ -1, -9.7, -1.6%, 0.2, -3, -10
48) COc1ccccc1Oc1coc2cc(OCC(N)=O)ccc2c1=O
→ -2, 1.8, -2.4%, 2.5, -6, 4
49) COc1ccc(NC(=O)C/C(C)=N/NC(=O)C2CCCCC2)c([N+](=O)[O-])c1
→ -17, -3.4, -0.6%, -0.6, -15, -10
50) CN(NS(=O)(=O)c1ccc(F)cc1)c1ncc(C(F)(F)F)cc1Cl
→ -4, -7.5, 1.7%, 0.6, -20, 18
51) CCOc1cc(C(=O)Nc2ccc3c4c(cccc24)C(=O)N3CC)cc(OCC)c1OCC
→ -5, -2.2, 7.1%[38.3 µM], 2.3, 5, -2
52) CC(Oc1cccnc1[N+](=O)[O-])C(=O)Nc1ccc(F)cc1 (stereo not drawn)
→ 0, 1.6, 1.8%, -0.8, 9, -30
53) Cc1cccc(NC(=O)c2cc3c(=O)n(Cc4cccnc4)ccc3nc2C)c1
→ nt, nt, -0.1%, 1.7, 9, nt
54) O=C(CN1CCCC1)Nc1c2c(cc3c1CCC3)CCC2
→ 0, -8.4, -4.2%, 0.9, -18, 8
55) O=C(CSc1cccc2cccnc12)N1CCCC1
→ -91*, -2.7, -2.3%, -0.3, -3, -93*
56) COCCN1C(=O)c2[nH]nc(-c3ccccc3O)c2C1c1ccc(OCc2ccccc2)c(OC)c1 (stereo not drawn)
→ nt, nt, 9.8%, 3.6, 73, nt
57) CCC1=NN=C(c2ccc(F)cc2)C(c2c[nH]c3ccccc23)N1O (stereo not drawn)
→ -6, -1.4, -0.1%, -0.5, 18, -9
58) Cc1ccc(NC(=O)c2cc3c(=O)[nH]c4ccccc4c3n2C)cc1F
→ nt, nt, -3.5%, 0.1, -1, nt
59) Cc1cc(C(=O)NCC2CCCO2)n(-c2ccccc2)n1 (stereo not drawn)
→ 6, -3.2, -1.6%, 0.5, 3, 1
60) Cc1ccc(S(=O)(=O)NCC(=O)N/N=C/c2ccccc2O)cc1
→ ?, -3.2, 1.7%, 1.6, 57, ?
61) Cc1ccc(N2CC(C(=O)Nc3ccc(S(=O)(=O)Nc4nccs4)cc3)CC2=O)cc1 (stereo not drawn)
→ 0, 1.2, 0.7%, 1.4, 17, -6
62) Cc1ccc(-c2cc3ccccc3nc2N2CCCC2)cc1
→ 79, -3.2, ?, 0.7, 30, 82
